Screening data as filed in PubChem BioAssay.
Rango complex inh: prevents formation of the Rango-importin beta complex; Q14974; Rango CFP/YFP FRET sensor + importin beta, 45 min; Potency, µM (highest dose often 92.2 µM), inactives show at the top dose inhibition of complex formation; 0.031% of 340,000 active; active = rising FRET ratio curve, often small or poorly fitted; inconclusive = mostly compound fluorescence or quenching in the first reads; inactive = flat curves in all reads;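 also: potency is read from the fitted curve at half-maximal effect; 0% = DMSO wells and 100% = buffer wells lacking importin beta; nearly all actives have a fitted effect of over 15% in size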
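FRET biosensor Rango (snurportin 1 IBB between N-terminal EYFP and C-terminal Cerulean), 50 nM in PBS/1 mM DTT/0.02% Tween-20/0.1% BSA, preincubated 5 min RT with compound; 0.125 microM importin beta added, 45 min RT, CFP/YFP FRET ratio read.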
GLA inh pH 4.5: inhibitors of human alpha-galactosidase A at pH 4.5; P06280; purified enzyme, 4-MU-alpha-Gal fluorescence, pH 4.5; activity change, negative = inhibition, % at 105 µM; 230,000 tested, under 10 active; inconclusive = small, poorly fitted or top-dose-only inhibition, or a rising curve; inactive = flat fitted curve, though single readings scatter; no compound was filed as active;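 also: 0% = full activity with enzyme and -100% = basal without enzyme; dose as in the result columns while the protocol names 77 µM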
Target sequence (P06280 whole entry, looked up): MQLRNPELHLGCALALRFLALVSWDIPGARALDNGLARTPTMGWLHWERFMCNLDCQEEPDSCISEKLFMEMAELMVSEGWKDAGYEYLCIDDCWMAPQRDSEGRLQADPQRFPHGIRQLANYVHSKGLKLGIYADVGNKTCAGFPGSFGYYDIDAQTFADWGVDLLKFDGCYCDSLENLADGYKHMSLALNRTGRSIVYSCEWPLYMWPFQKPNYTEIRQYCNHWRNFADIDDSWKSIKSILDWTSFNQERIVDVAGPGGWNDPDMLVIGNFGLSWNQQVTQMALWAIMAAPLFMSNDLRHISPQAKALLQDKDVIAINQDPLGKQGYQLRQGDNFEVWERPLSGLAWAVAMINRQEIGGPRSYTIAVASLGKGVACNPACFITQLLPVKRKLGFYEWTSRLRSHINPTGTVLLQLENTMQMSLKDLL
miR-21 FLuc: raises the signal of a miR-21 reporter | HeLa miR-21 FLuc reporter, luciferase, 48 h | Potency, µM (titrated, usually from 38.3 µM), inactives show at the highest dose reporter change, positive = more light | 340,000 tested, under 10 active | AID 2288; active = well fitted rising curve with a large enough effect; inconclusive = small, poorly fitted or top-dose-only effect; inactive = no such curve, though single readings can be large or run the other way;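 also: % of control where 0% means no effect; miR-21 action dims this reporter so a rising signal means less miR-21 action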
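Using DMEM plus 10% FBS, HeLa miR-21-FLuc cells are incubated with test compounds (final up to about 40uM) for 48 hours; firefly luciferase signal is then imaged following reagent-mediated lysis.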
Rango dissoc inh: inhibition of RanGTP-driven Rango-importin beta dissociation; Potency, µM (series often up to 46.1 µM), inactives show top-dose activity change, negative = inhibition; 0.071% of 340,000 active; O95149+P62826; Biochemical FRET Rango-importin beta, RanGTP-induced dissociation; active means falling FRET ratio curve, often poorly fitted, with flat reads before Ran was added; inconclusive means other falling curves, or compound fluorescence or quenching; inactive means flat or rising ratio curve;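 also: potency is read from the fitted curve at half-maximal effect; % of control where 0% means no effect; nearly all actives have a fitted effect of over 45% in size; -100% = wells without RanGTP and RCC1; the record marks most hits as doubtful in a second field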
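Compounds sat 5 min at room temperature with 0.1 uM Rango biosensor plus 0.25 uM importin beta, then FRET pre-read. RanGTP-RCC1 (0.6 uM Ran, 2mM GTP, 0.2 uM RCC1) added for 45 min, and the CFP/YFP post-read measured blocked complex dissociation.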
* marks the source's active call; other numbers are inactive results; ? = inconclusive; / = not tested or not shown; & = joins results of further samples; [ ] = dose if it differs, or a comment. Some of the compounds tested; rates above refer to the full screens.

structure	Rango complex inh	GLA inh pH 4.5	miR-21 FLuc	Rango dissoc inh
NC(=O)C1Cc2ccccc2CN1C(=O)c1cc(C2CC2)nn1-c1ccccc1 (stereo unspecified)	4.5%	/	/	3%
CCNC(=O)CN(Cc1ccccc1)S(=O)(=O)c1ccccc1	-2.9%	-4	-22%	15%
NC(=O)c1ccc(-n2nnnc2Oc2ccccc2C(=O)N2CCOCC2)cc1	1.3%	6	0%	6%
COc1ccc(Nc2ccc(N3C(=O)CCCC3=O)cc2[N+](=O)[O-])cc1OC	5.6%	-3	-2%	24%
O=C1CCC(=O)N1N1C(=O)C2C3c4ccccc4C(c4ccccc43)C2C1=O (stereo unspecified)	3.6%	2	0%	1%
CC(C)(C)c1ccc(OCCC(=O)OCC(=O)NC2CCCCC2)cc1	1.2%	/	/	-1%
CCC(=O)/C=C1/Sc2ccc(OC)cc2N1CC	?	-5	5%	-1%
CCOc1ccc(NC(=O)COC(=O)Cc2ccc(S(=O)(=O)N3CCOCC3)s2)cc1	-0.3%	-5	-4%	-1%
COc1ccc(CCNC(=O)COC(=O)Cc2cc(OC)c(OC)c(OC)c2)cc1	1.2%	14	-6%	5%
CCN(CC)CCCNC(=O)c1nn2c(C(F)(F)F)cc(-c3ccccc3)nc2c1Cl	6.6%	/	-5%	5%
O=C(Oc1ccccc1/C=C\C(=O)c1cc2ccccc2o1)c1ccccc1	4.0%	-8	-3%	-2%
O=c1oc2ccccc2c(O)c1C=NCc1ccccn1	-1.1%	-4	19%	3%
O=C(CN1C(=O)c2cccnc2Oc2ccc(Cl)cc21)N1CCOCC1	0.0%	/	-3%	1%
O=C(OCc1ccccc1)c1ccc(Br)o1	0.9%	4	-8%	-5%
CC(=O)NCCC(=O)Nc1nc(-c2ccc3c(c2)OCCO3)cs1	1.7%	/	-30%	0%
NC(N)=NC1=NC(=O)C(Cc2ccccc2Cl)S1 (stereo unspecified)	-0.9%	1	-38%	-11%
COc1cccc(C2C(C(=O)c3sc(C)nc3C)=C(O)C(=O)N2CCN2CCOCC2)c1OC (stereo unspecified)	-4.7%	4	-1%	6%
COC(=O)c1cc(OCC(=O)NC2CCCc3ccccc32)cc(C(=O)OC)c1 (stereo unspecified)	3.2%	/	1%	-17%
COc1ccc(NC(=O)CSc2nnc(NC(=O)c3ccccc3C(=O)O)s2)cc1	-5.3%	0	4%	10%
O=C(NC(=S)Nc1ccccc1N1CCCC1)c1ccco1	-0.6%	3	-2%	-2%

Part of the list above, limited to Rango complex inh, miR-21 FLuc and Rango dissoc inh.
| compound | Rango complex inh | miR-21 FLuc | Rango dissoc inh |
| --- | --- | --- | --- |
| NC(N)=NC1=NC(=O)C(Cc2ccccc2Cl)S1 (stereo unspecified) | -0.9% | -38% | -11% |
| COc1ccc(Nc2ccc(N3C(=O)CCCC3=O)cc2[N+](=O)[O-])cc1OC | 5.6% | -2% | 24% |

Next part:
structure	Rango complex inh	GLA inh pH 4.5	miR-21 FLuc	Rango dissoc inh
CCOc1ccc(/C=N/NC(=O)c2c(C)n(C)c3ccc(OC)cc23)cc1	2.1%	-4	15%	-1%
N#CCCN(C(=O)CSc1ncccn1)c1ccc2c(c1)OCCO2	-0.2%	/	/	-5%
O=C(COC(=O)CNC(=O)c1cccc(OC(F)F)c1)NNC(=O)c1ccccc1	-1.9%	/	/	-4%
Clc1cc2c(c(CSc3nc4ccccc4n4cccc34)c1)OCOC2	-0.8%	2	-5%	12%
CCCCc1nnc(NC(=O)C(=O)OCC)s1	-5.0%	5	0%	?
CCOC(=O)C1=C(N)OC2=C(C(=O)CCC2)C1c1sccc1C (stereo unspecified)	-0.6%	0	-26%	-7%
CCOC(=O)c1[nH]cnc1C(=O)Nc1cccc(OC)c1	-0.4%	5	5%&3%	-7%
N#CCCN(C(=O)COC(=O)c1ccc2c(c1)OCO2)c1ccccc1	4.2%	/	/	-28%
Cc1cccc(C)c1NC(=O)COC(=O)c1ccc2c(c1)OCO2	0.3%	4	-1%	1%
O=C(CCNC(=O)c1ccc([N+](=O)[O-])cc1)Oc1ccc(F)c(F)c1	0.5%	/	/	2%
NC(=O)c1nc(C2CCCCC2)nc2c1[nH]c(=O)n2-c1ccc(F)cc1	1.0%	-3	-5%	?
COC(=O)c1cc(NC(=O)Cc2coc3cc(OC)ccc23)cc(C(=O)OC)c1	0.5%	-6	-1%	0%
COc1ccc(-n2c(=O)c3c4c(sc3n3c(=S)[nH]nc23)COC(C(C)C)C4)cc1 (stereo unspecified)	1.9%	-8	-3%	4%
O=C1CCc2cc(NS(=O)(=O)c3ccccc3)cc3c2N1CCC3	-1.1%	/	/	5%
COc1nn(-c2ccccc2)c(=O)c(Cl)c1Cl	7.7%	/	?	1%
O=C(CCc1nnc(-c2ccc3c(c2)OCO3)o1)N1CCC(c2ccc(F)cc2)C1 (stereo unspecified)	0.5%	-5	-52%	1%
COC(=O)CN(c1cccc(OC)c1)S(C)(=O)=O	-0.5%	8	8%	9%
Cc1ccc(C)c(-n2nnnc2SCC(=O)NCC2CCCO2)c1 (stereo unspecified)	-1.2%	/	/	11%
Cc1ccc(C(=O)Nn2cnc3ccccc3c2=O)cc1C	1.7%	/	-52%	-10%
O=C(NC(=S)NCC1CCCO1)c1ccc(Cl)cc1 (stereo unspecified)	-2.2%	-5	-58%	3%
COc1ccc(N2CC(C(=O)Nc3ccc(S(=O)(=O)N4CCCCC4)cc3)CC2=O)cc1 (stereo unspecified)	-0.7%	/	0%	-1%
COc1ccc(NC(=O)C2CC(=O)N(Cc3ccco3)C2)cc1Cl (stereo unspecified)	-0.4%	/	/	-13%
CN(C)S(=O)(=O)Oc1cccc(C(=O)Nc2ccc([N+](=O)[O-])cc2)c1	?	1	-1%	-18%
CC1CCCCN1CCCn1c(=S)[nH]c2ccccc2c1=O (stereo unspecified)	2.8%	4	-1%	20%
Cc1cc(C)c2nncn2n1	-5.6%	-3	4%	-1%
COc1ccccc1OCCCCn1c(C(C)O)nc2ccccc21 (stereo unspecified)	0.9%	/	4%	-25%
O=C(c1ccccc1)c1ccccn1	-2.5%	8[21.1 µM]	1%	-2%
O=C(COC(=O)c1ccccc1NC(=O)c1ccco1)NC1CCS(=O)(=O)C1 (stereo unspecified)	-1.9%	0	-6%	-4%
Cc1noc(NS(=O)(=O)c2ccc(NC(=O)c3ccc(OC(C)C)cc3)cc2)c1C	-1.5%	2	-26%	-2%
O=C(CCCCCn1c(SCC(=O)c2ccccc2)nc2ccccc2c1=O)NCc1ccco1	-3.4%	0	0%	-16%
CCOc1ccc(C(=O)Nc2nc3ccccc3[nH]2)cc1OCC	-0.3%	4	14%	7%
CC(=O)c1ccc(OCC(=O)N(C2CCCCC2)C2CCS(=O)(=O)C2)cc1 (stereo unspecified)	1.6%	/	/	26%
CCc1c(C)nc2ncnn2c1NCCc1ccc(OC)cc1	-2.0%	-27	18%	-6%
Cc1ccc(/C=N/n2c(-c3ccccn3)n[nH]c2=S)o1	-5.8%	-3	-3%	5%
COCCNC(=O)CNS(=O)(=O)c1ccc2nc(C)sc2c1	?	-2	-1%	20%
Cc1cc(=O)n2[nH]c(COc3ccccc3)nc2n1	2.4%	8	-2%	8%
O=C(c1cccs1)N1CCN(CCc2ccccc2)CC1	3.2%	3	-12%	11%
Cc1ccc(C(=O)NCCc2nnc3ccc(SCC(=O)Nc4ccccc4F)nn23)cc1	0.7%	/	-8%	0%
COc1ccc(N2CCCn3c2nc2c3c(=O)n(Cc3ccc(F)cc3)c(=O)n2C)c(OC)c1	1.1%	-1	-7%	-1%
COC(=O)C/C=C/N(Cc1ccccc1OC)S(=O)(=O)CCl	0.5%	/	/	-7%
Cc1cc2nccc(-c3ccc(F)cc3)n2n1	0.6%	/	0%	-7%
COc1cc(/C=N/NC(=O)c2ccc3c(c2)OCCO3)cc(Br)c1O	?	/	-21%	?
Cc1nn(C)c(Cl)c1CN1CCN(C2CCCCC2)C(CCO)C1 (stereo unspecified)	1.4%	1	0%	1%
Cc1c(NC(=O)CC(C)C)c(=O)n(-c2ccccc2)n1C	-5.0%	-1	-3%	-7%
Cc1cnc(NC(=O)C2COc3ccccc3O2)s1 (stereo unspecified)	0.0%	-2	25%	-11%
Cn1c(N)c(C(=O)COC(=O)CCC(=O)c2ccc(F)cc2)c(=O)n(C)c1=O	-1.1%	-7	0%	8%
COC(=O)Nc1ccc(=O)n(Cc2c(Cl)cccc2Cl)c1	5.5%	-4	-7%	6%
O=C(NNc1c2ccccc2nc2ccccc12)c1cc2ccccc2cc1O	-2.8%	-6	22%	-15%
COc1ccccc1N(CC(O)CN1C(=O)NC(C)(C)C1=O)S(=O)(=O)c1ccc(C)cc1 (stereo unspecified)	-0.4%	2	6%	2%
O=C(CSc1nnc(CNC(=O)c2ccccc2F)o1)NCc1ccccc1	0.4%	11	-2%	14%
Cn1c(=O)c(C(=O)NCC2CCCO2)c(O)c2ccccc21 (stereo unspecified)	0.4%	0	-39%	-15%
Cc1cc(=O)n2c(n1)NC(Nc1cccc(C)c1C)=NC2c1ccccc1 (stereo unspecified)	-0.5%	0	7%	31%
CCC(C)NC(=O)C1CCCN(c2nc(C)cc(OC)n2)C1 (stereo unspecified)	0.2%	4	-3%	1%
COc1ccc(/C=C2\C(=O)N(Cc3ccc(F)cc3)CC(=O)N2Cc2ccccc2)cc1	0.8%	-12	11%	-1%
COC(=O)c1ccc(CN2CCN(Cc3ccc(F)cc3)C(CCO)C2)cc1 (stereo unspecified)	-0.1%	5	-4%	1%
C=CCC(=O)N(CC)CC1CCCN(CCc2cccc(F)c2)C1 (stereo unspecified)	0.7%	/	-6%	15%
COc1cc(OC)cc(C(=O)OCC(=O)Nc2cccc(C(C)=O)c2)c1	-3.5%	/	10%	11%
CCOC(=O)c1cccc(NC(=O)/C=C/c2cccc([N+](=O)[O-])c2)c1	-1.5%	2	-8%	2%
Cc1ccc(NC(=O)CC(=O)c2ccc([N+](=O)[O-])cc2)cc1S(=O)(=O)Nc1cccc(Cl)c1	-0.1%	5	?	-16%
CNc1nc(NCCOC23CC4CC(CC(C4)C2)C3)nc(OCC(F)(F)F)n1	-0.6%	-5	-3%	-3%

(more compounds)
structure	Rango complex inh	GLA inh pH 4.5	miR-21 FLuc	Rango dissoc inh
CCOc1ccccc1NCc1cc(=O)oc2cc(C)ccc12	0.3%	/	-6%	-1%
S=c1[nH]nc(COc2ccccc2)n1/N=C/C=C/c1ccccc1	-2.2%	-3	-16%	2%
CCCN(CC(=O)Nc1ccccc1C)C(=O)COc1c(C)cccc1C	7.9%	/	/	-9%
Cc1sc(-c2ccncc2)nc1OC(=O)c1ccc(F)cc1F	?	3	2%	?
Cc1ccc(/C=C/C(=O)Nc2cccnc2)o1	?	-1	-1%	-10%
COc1nc(N/N=C/c2ccc(C)cc2)nc(N2CCCCC2)n1	1.2%	-4	-9%	3%
CC(OC(=O)COc1cccc2c1OC(C)(C)C2)C(=O)Nc1ccc(S(N)(=O)=O)cc1 (stereo unspecified)	2.5%	/	/	-7%
O=C(Cn1cc2c(n1)CCCCC2)NCc1ccccn1	?	-3	-16%	-16%
NC(=O)CC[C@@H]1NC(=O)[C@@H]2CCCN2C(=O)c2cc([N+](=O)[O-])cc(I)c2NCCC[C@@H](C(N)=O)NC1=O	5.3%	1	-8%	-10%
CCOc1ccc(-c2nnn(CC(=O)NCc3ccc(C)cc3)n2)cc1	0.1%	7	-5%	4%

Reformatted as labelled records: part of the list above
O=C(COC(=O)CNC(=O)c1cccc(OC(F)F)c1)NNC(=O)c1ccccc1
  Rango complex inh: -1.9%	GLA inh pH 4.5: /	miR-21 FLuc: /	Rango dissoc inh: -4%
CNc1nc(NCCOC23CC4CC(CC(C4)C2)C3)nc(OCC(F)(F)F)n1
  Rango complex inh: -0.6%	GLA inh pH 4.5: -5	miR-21 FLuc: -3%	Rango dissoc inh: -3%
